# VDR inh = Inhibitors of the vitamin D receptor (VDR): qHTS | 400,000 compounds, 0.93% hits | Vitamin D3 receptor (Homo sapiens), P11473 | VDR-SRC2-3 peptide fluorescence polarization, 2 h | AID 504847, 2011 | Potency, µM, for inactives: max response, negative = inhibition, usual class: inhibitors; active means well fitted inhibition curve with a large enough effect; inconclusive means small, poorly fitted or top-dose-only effect, or another doubt; inactive means no such curve, though single readings can be large or run the other way; further: series mostly up to about 120 µM
# Target sequence (P11473 whole entry, looked up): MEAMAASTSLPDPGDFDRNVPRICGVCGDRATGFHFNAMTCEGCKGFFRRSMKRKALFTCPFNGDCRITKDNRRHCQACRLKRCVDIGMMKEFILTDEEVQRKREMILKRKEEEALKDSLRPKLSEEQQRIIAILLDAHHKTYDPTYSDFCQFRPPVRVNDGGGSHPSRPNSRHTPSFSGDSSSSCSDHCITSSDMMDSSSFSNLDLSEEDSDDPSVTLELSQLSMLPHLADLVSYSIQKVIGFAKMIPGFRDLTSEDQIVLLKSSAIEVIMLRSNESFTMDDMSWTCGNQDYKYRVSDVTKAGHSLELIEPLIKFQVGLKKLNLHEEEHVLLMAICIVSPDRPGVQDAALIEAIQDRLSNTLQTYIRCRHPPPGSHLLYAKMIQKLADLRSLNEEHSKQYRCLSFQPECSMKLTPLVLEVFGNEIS
#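 Measured by FP: displacement of SRC2-3 coactivator peptide from VDR by library compounds, following a two-hour ambient incubation.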
# * hit, by the source's call; ? = inconclusive; & = joins results of further samples. On the % scale 0 is the no-effect control and ±100 the full control effect; potency means the concentration at half of the fitted maximal effect. Some of the compounds tested (hit frequency here may not be typical).
VDR inh | mol
-8% | COc1cc(NC(=O)c2cc(-c3ccc(Cl)c(Cl)c3)on2)cc(OC)c1OC
-16% | CCOC(=O)C1=C(C)OC(N)=C(C#N)C1c1cc2c(cc1[N+](=O)[O-])OCO2 (centres undefined)
1% | O=C(NCc1ccccn1)C(=O)Nc1nc(-c2ccccc2)cs1
-4% | COc1ccc([C@H]2CC(=O)C=C(c3cccc(C(C)C)c3)C2)cc1
-21% | NC1=NC[C@H](Cc2ccccc2)N1CC1CCCCC1
-20% | Cc1cc(C)nc(NC(=O)C(c2ccccc2)c2ccccc2)c1
-9% | COc1cccc(-c2cncnc2NCc2cnc(C)cn2)c1
-12% | CCN1C=C(Cc2ccc(F)cc2)C2=C(C1)C(c1ccc(F)cc1)C(C#N)=C(N)O2 (centres undefined)
-3% | Cn1c(=O)c2ccccc2n(Cc2ccccc2F)c1=O
-6% | Nn1c(SCC(=O)Nc2ccccc2)nnc(Cc2ccccc2)c1=O
5% | O=C(COC(=O)C1CCN(/C=C/C(=O)C(F)(F)F)CC1)Nc1cccc(F)c1
8% | Cc1ccsc1CCN1C(=O)N(c2ccc(F)cc2)C(=O)C1CC(=O)Nc1ccccc1 (centres undefined)
-3% | O=C(N/N=C/c1ccc(OCc2ccccc2)cc1)c1ccco1
-5% | CCN(CC(=O)Nc1c(F)cccc1F)C(=O)COc1ccc2c(C)cc(=O)oc2c1
6%&-7% | COc1cc(C(CCN2CCCC(C)C2)c2c(OC)cc(OC)c3c(-c4ccccc4)cc(=O)oc23)cc(OC)c1OC (centres undefined)
-2% | COc1ccc(Cc2nnc(NS(=O)(=O)c3ccc(NC(C)=O)cc3)s2)cc1
-3% | CCCCc1ccc(NC(=O)CSc2nc(=O)n(CCN(C)C)c3c2CCC3)cc1
11% | O=[N+]([O-])c1ccc(CSCc2ccc([N+](=O)[O-])cc2)cc1
-1% | Cc1cc2c(cc1C)N(Cc1ccccc1)C1=NCCCN12
-3% | O=C(Cc1cccc2ccccc12)Nc1ccccc1

# Arranged by length of the SMILES (lowest first): some entries from above
VDR inh | mol
-3% | O=C(Cc1cccc2ccccc12)Nc1ccccc1
-3% | Cn1c(=O)c2ccccc2n(Cc2ccccc2F)c1=O
-9% | COc1cccc(-c2cncnc2NCc2cnc(C)cn2)c1
-1% | Cc1cc2c(cc1C)N(Cc1ccccc1)C1=NCCCN12
-3% | O=C(N/N=C/c1ccc(OCc2ccccc2)cc1)c1ccco1
1% | O=C(NCc1ccccn1)C(=O)Nc1nc(-c2ccccc2)cs1
-6% | Nn1c(SCC(=O)Nc2ccccc2)nnc(Cc2ccccc2)c1=O
11% | O=[N+]([O-])c1ccc(CSCc2ccc([N+](=O)[O-])cc2)cc1
-3% | CCCCc1ccc(NC(=O)CSc2nc(=O)n(CCN(C)C)c3c2CCC3)cc1
-2% | COc1ccc(Cc2nnc(NS(=O)(=O)c3ccc(NC(C)=O)cc3)s2)cc1
-8% | COc1cc(NC(=O)c2cc(-c3ccc(Cl)c(Cl)c3)on2)cc(OC)c1OC
-5% | CCN(CC(=O)Nc1c(F)cccc1F)C(=O)COc1ccc2c(C)cc(=O)oc2c1
8% | Cc1ccsc1CCN1C(=O)N(c2ccc(F)cc2)C(=O)C1CC(=O)Nc1ccccc1 (centres undefined)
-12% | CCN1C=C(Cc2ccc(F)cc2)C2=C(C1)C(c1ccc(F)cc1)C(C#N)=C(N)O2 (centres undefined)
6%&-7% | COc1cc(C(CCN2CCCC(C)C2)c2c(OC)cc(OC)c3c(-c4ccccc4)cc(=O)oc23)cc(OC)c1OC (centres undefined)

# (further entries)
VDR inh | mol
6% | CCOC(=O)N1CCC(NC(=O)CN2C(=O)CCSc3ccccc32)CC1
-3% | COc1ccc(S(=O)(=O)c2cn(C)c3ccc(C)cc3c2=O)cc1
-8% | O=C(NC1CCCCC1)c1ccc(CNc2nc(=S)[nH]c3ccccc23)cc1
-17% | CCc1cccc(C)c1NC(=O)CN1C(=O)c2cccc3cccc1c23
-25% | CN(C(=O)COC(=O)CNC(=O)CNC(=O)c1ccc(Cl)cc1Cl)c1ccccc1
0% | COc1cc(CN(C(=O)COc2ccccc2Cl)c2ccccn2)cc(OC)c1OC
7% | COc1ccc(Cn2c(C(=O)O)c(CNCCc3ccccc3Cl)c3ccc(C)cc32)cc1
? | COc1ccc2[nH]c3c(c2c1)CCN(C(=O)c1cccc(Cl)c1)C3c1ccc(F)cc1 (centres undefined)
-6% | COc1cc(C2CC(=O)NC3=C2C(=O)CC(C)(C)C3)ccc1O (centres undefined)
? | NNC(=O)c1ccc(N2CCc3ccccc32)c([N+](=O)[O-])c1
5% | CCOC(=O)C1C(C#N)=C(N)OC(C)=C1c1ccncc1 (centres undefined)
6% | CCOC(=O)C1CCCN(S(=O)(=O)Cc2ccccc2Cl)C1 (centres undefined)
-20% | COc1ccc(N2CCCn3c2nc2c3c(=O)n(Cc3ccccc3)c(=O)n2C)c(OC)c1
-7% | N#CCN1CCN(CC(=O)Nc2ccc(OCc3ccccc3)cc2)CC1
-12% | O=P(O)(O)c1ccccc1OCCCCCOc1ccccc1P(=O)(O)O
-9% | COc1cccc(C2NC(=O)c3n[nH]c(-c4cccs4)c32)c1 (centres undefined)
-9% | O=C(Nc1ccc(Cl)cc1)Nc1ccc(N2CCOCC2)cc1
11% | Cc1cccc(N2CCN(C(=O)c3cc(S(=O)(=O)N4CCOCC4)cn3C)CC2C)c1 (centres undefined)
-28% | CC1CCc2sc3c(c2C1)c(=O)n(CC(=O)O)c(=O)n3Cc1ccc(Cl)cc1 (centres undefined)
3% | CS(=O)(=O)Nc1ccc2c(c1)nc1n2CCOC1
9% | Cc1ncn(-c2ccc(C(=O)Oc3ccccc3)cn2)n1
5% | CC(=O)Nc1ccc(S(=O)(=O)N2CCN(CC(=O)NC3CCCC3)CC2)cc1
-22% | CC(=O)Nc1ccc(C(=O)N2CCN(S(=O)(=O)c3ccc4c(c3)OCCCO4)CC2)cc1
0% | CC1(C)CNC(=O)C=C(c2ccccc2)C1
? | COc1ccc(S(=O)(=O)Oc2ccc3c(c2)O/C(=C\c2cccnc2)C3=O)cc1
-15% | COc1ccc(NC(=O)c2cc(SC)ccc2Cl)cc1
-6% | Cc1ccc(NC(=O)C2CCCN(S(=O)(=O)c3c(C)n[nH]c3C)C2)cc1C (centres undefined)
-5% | O=C(NCc1ccc2c(c1)OCO2)c1ccc(CN2CCc3ccccc3C2)cc1
10% | O=C(NCc1ccccc1)C(c1ccncc1)N(C(=O)c1ccccn1)c1ccccc1 (centres undefined)
-9% | CCN(C[C@H]1N[C@@](C)(C(=O)OC)[C@H]2C(=O)N(C)C(=O)[C@@H]12)C(=O)C1CCCCC1
? | COc1ccc(C2CC(c3ccccc3)=NN2C(=S)Nc2ccccc2)cc1 (centres undefined)
1% | O=C(CCCn1c(=O)c2sccc2n(Cc2ccc(F)cc2)c1=O)NCc1ccco1
0% | CCCCN(C(=S)SC)C1CCS(=O)(=O)C1 (centres undefined)
-1% | CCC(=O)NC(=S)NNC(=O)c1ccccc1[N+](=O)[O-]
-10% | Cc1ccc(S(=O)(=O)N(C)C)cc1NC(=O)COC(=O)CSc1ccccc1
-8% | O=C(O)c1ccc(Nc2nc(-c3ccccc3)c3cc(Br)ccc3n2)cc1
11% | CC1=C(C)C(OCCBr)N(c2cc(O)c(Cl)cc2F)C1=O (centres undefined)
-7% | C=CCN(CC=C)C(=O)C[n+]1ccc(C(N)=O)cc1
3% | O=C(NCC(c1ccco1)N1CCN(c2ccccc2)CC1)c1cccs1 (centres undefined)
-8% | O=S(=O)(c1cccs1)N1CCN(c2ccccc2)CC1
-5% | CCn1c(COc2cc(C)cc(C)c2)nnc1SCC(=O)N1CCN(c2ccccc2)CC1
-25% | CCn1cc(/C=C(\NC(=O)c2ccc(OC)c(OC)c2)C(=O)N2CCOCC2)c2ccccc21
-7% | COc1ccc(C(=O)NCCSCc2ccccc2C)cc1
-10% | O=C(c1cc2c(s1)-c1ccccc1OC2)N1CCN(c2ccc(F)cc2)CC1
-7% | CC(=Nc1ccccc1)C1=C(O)C(CC(C)C)NC1=O (centres undefined)
1% | O=C(C1CC12CCCC2)N1CCC(CO)(Cc2ccccc2Cl)CC1 (centres undefined)
1% | COc1cccc(C(C(=O)NC2CCCCC2)N(C(=O)c2ccco2)c2ccccc2OC)c1 (centres undefined)
-2% | CCCn1cc(S(=O)(=O)c2cccc(Cl)c2)c(=O)c2cc(F)c(N3CCOCC3)cc21
7% | Cc1cccc(C(=O)Nc2c(C(=O)N3CCN(c4ccc(F)cc4)CC3)oc3ccccc23)c1
6% | CCC(C(=O)NC(C)(C)C)N(C(=O)Cn1nnc(-c2ccccc2F)n1)c1cnc2ccccc2c1 (centres undefined)
4% | CC(C)CC(=O)NC(NC(=S)Nc1sc2c(c1C#N)CCCC2)C(Cl)(Cl)Cl (centres undefined)
-13% | Cc1onc(-c2c(Cl)cccc2Cl)c1C(=O)Nc1ccc2c(c1)OCCO2
1% | CCCCCC(C)n1[nH]c(=O)c2c(C)cc(C)nc21 (centres undefined)
? | C=CCn1c(SC(F)F)nc2scc(-c3ccco3)c2c1=O
-2% | O=C(Cn1cnc2c(OCc3ccccc3)ncnc21)NCCc1c[nH]c2ccccc12
1%&12% | CCOc1ccc(Cc2nccc3cc(OCC)c(OCC)cc23)cc1OCC
-8% | NC(=O)Cn1ccc(O)c(Cc2ccc(Cl)cc2Cl)c1=O
6%&-2% | O=C(Nc1ccc(O)c2c(=O)cc(-c3ccccc3Cl)oc12)c1ccc(Cl)cc1Cl
-6% | Cc1occc1C(=O)NNC(=O)c1ccc(F)cc1
-6% | COCCCn1c(=N)c(C(=O)NCC2CCCO2)cc2c(=O)n3cccc(C)c3nc21 (centres undefined)

# The list goes on:
VDR inh | mol
1% | O=C(NC1CCCCC1)C(c1ccc(O)cc1)N(C(=O)c1cnccn1)c1cccc(F)c1 (centres undefined)
0% | COc1cc(-c2nnc(SCC(=O)Nc3ccc(C(=O)O)cc3)o2)cc(OC)c1OC
7% | CN(CC(=O)Nc1ccccc1Cl)C(=O)CN1C(=O)NC(c2ccccc2)(c2ccccc2)C1=O
-8% | Cc1ccc(C2=NCCn3c2c2ccccc2[n+]3[O-])cc1
1% | Cn1cc(CNC(=O)c2cc(COc3ccc4c(c3)CCCC4)on2)cn1
2% | Cc1cc(C)c(NC(=O)CSc2nc(=O)[nH]c3c2CCCC3)c(C)c1
-9% | C=C(C)CSc1nc2sc3c(c2c(=O)n1-c1ccccc1)CC(C(C)C)OC3 (centres undefined)
-10% | Cc1nn(C(=O)C2CC2)c(C)c1Sc1ccc(Cl)cc1
-6% | COC(=O)c1c(NC(=O)c2cc3nc(-c4ccc(OC)cc4)cc(C(F)(F)F)n3n2)sc2c1CCCC2
? | CCOc1cc(/C=C2\CN(C)C/C(=C\c3ccc(O)c(OCC)c3)C2=O)ccc1O
-12% | COc1ccccc1C(=O)NNC(=O)c1ccccc1[N+](=O)[O-]
-10% | COc1cc(-c2nnc(SCC(=O)c3cc(C)n(CC4CCCO4)c3C)o2)cc(OC)c1OC (centres undefined)
0% | Nc1c(-c2ccc(Cl)cc2)cnn1-c1cc(C(F)(F)F)cc(C(F)(F)F)c1
-11% | COc1cc([N+](=O)[O-])ccc1NC(=O)C[n+]1ccccc1C
? | CCCCCCCCCCCC1=C(O)C(=O)C=C(O)C1=O
-20% | COCCN(C(=S)Nc1c(C)cc(C)cc1C)C(C)c1cccs1 (centres undefined)
-5% | CCOC(=O)COc1ccc2nsnc2c1
-10% | O=C(CN1C(=O)c2ccccc2S1(=O)=O)N1CCN(c2ccc(F)cc2)CC1
-23% | CC1CCN(C(=O)Cn2nnc(-c3ccccc3)n2)CC1
-15% | CC(=O)Nc1cc(C(=O)NCc2ccco2)ccc1Sc1ccc(C)cc1
-1% | O=c1[nH]c(-c2ccccc2)nn1-c1ccc(Br)cc1Br
9% | COc1ccc(OC(C)C(=O)Nc2cccc(F)c2)cc1 (centres undefined)
18% | COc1ccc(NC(=O)C2CC(=O)OC23CCCCC3)cc1 (centres undefined)
-6% | COC(=O)c1sccc1NC(=S)Nc1cc(C)cc(C)c1
5% | Cc1ccc(OCC(=O)Nc2cc(C)on2)c([N+](=O)[O-])n1
-3% | COc1ccc(-c2c(C#N)c(N)nc3c2c(=O)n(C)c(=O)n3C)cc1Cl
13% | O=C(O/N=C(\c1ccccc1)c1ccncc1)c1ccccc1F
-11% | O=C(CSc1nnc(NC(=O)c2ccc(F)cc2)s1)NC1CCCC1
1% | CCn1cc(C(=O)OCC(=O)c2ccccc2)c(=O)c2ccc(C)nc21
-7% | COc1ccc(CN(CC(=O)NC2CCCC2)C(=O)CCC(=O)Nc2nc(C)cs2)cc1
-20% | C=CCS(=O)(=O)N1CCCC(N2CCN(c3ccccc3OC)CC2)C1 (centres undefined)
2% | COC(=O)c1sc(NC(=O)/C=C/c2ccccc2Cl)nc1C
-3% | Cc1ccc(-c2csc(NC(=O)CSc3nc4ccccc4o3)n2)cc1
6% | CN(C)C(=O)CSc1nc2ccccc2n1CC(=O)N1CCN(c2ccccc2)CC1
5% | COc1ccc(CCNC(=O)CSc2nc3ccccc3o2)cc1
-28% | COc1cccc(CNC(=O)COC(=O)c2nc(Cl)c(Cl)c(Cl)c2Cl)c1
-19% | CCc1nc(SCc2ccc(OC)c(Br)c2)n[nH]1
-4% | COc1cc(CNCc2cccs2)ccc1OCC(=O)NC(C)(C)C
-9% | COc1nc(NCCc2ccc(OC)c(OC)c2)nc(OC)n1
8% | CCOC(CNC(=O)C(=O)Nc1cc2c3c(c1)CCN3C(=O)CC2)OCC
8% | CCOc1ccc(NC(=O)Nc2cc(C)ccc2OC)cc1
5% | Cn1cnnc1Sc1ccc(/C=C(\CC(=O)O)c2nc3ccccc3s2)cc1[N+](=O)[O-]
-1% | COc1cccc(CSc2nc3nc(C)cc(C)n3n2)c1
-2% | CN(C)c1ccc(/C=N/NC(=O)c2nnn(-c3nonc3N)c2CN2CCCCCC2)cc1

# Assay outcomes from PubChem.
